RecA intein inh: Mtb RecA intein splicing inhibitors, primary screen, biochemical, fluorescence, HTS; cell-free RecA intein splicing; inhibition, %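 (about 9 µM by stock and volumes)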; 290,000 compounds, 0.75% hits; Protein RecA (Mycobacterium tuberculosis (strain ATCC 25618 / H37Rv)), P9WHJ3; in the data active = inhibition above about 30%; inconclusive = no clear call, values can overlap the other calls;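 note: 0% = vehicle wells and 100% = reference inhibitor control wells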
Target sequence (P9WHJ3 whole entry, looked up): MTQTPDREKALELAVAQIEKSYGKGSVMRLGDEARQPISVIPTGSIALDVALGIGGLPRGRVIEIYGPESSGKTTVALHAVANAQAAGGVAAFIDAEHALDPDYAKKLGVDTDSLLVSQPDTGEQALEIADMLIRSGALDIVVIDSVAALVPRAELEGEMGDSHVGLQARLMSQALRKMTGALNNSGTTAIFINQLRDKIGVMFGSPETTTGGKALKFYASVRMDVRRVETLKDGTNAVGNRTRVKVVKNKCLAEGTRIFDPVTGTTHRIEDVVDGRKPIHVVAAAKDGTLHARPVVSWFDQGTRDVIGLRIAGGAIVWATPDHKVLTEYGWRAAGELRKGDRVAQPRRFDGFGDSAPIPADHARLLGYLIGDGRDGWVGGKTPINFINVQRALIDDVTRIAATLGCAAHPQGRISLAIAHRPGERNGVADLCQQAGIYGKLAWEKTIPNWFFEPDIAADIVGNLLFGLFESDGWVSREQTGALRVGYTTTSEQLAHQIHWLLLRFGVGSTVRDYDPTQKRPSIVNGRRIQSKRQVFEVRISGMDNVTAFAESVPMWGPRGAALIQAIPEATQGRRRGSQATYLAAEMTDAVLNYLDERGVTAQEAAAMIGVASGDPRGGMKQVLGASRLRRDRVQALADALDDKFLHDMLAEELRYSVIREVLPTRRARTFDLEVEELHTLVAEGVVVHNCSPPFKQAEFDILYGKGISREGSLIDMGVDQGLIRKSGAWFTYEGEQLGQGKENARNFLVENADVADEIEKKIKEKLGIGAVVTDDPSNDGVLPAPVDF
Mtb H37Rv: M. tuberculosis H37Rv growth inhibitors, H37Rv strain (AID 1626) | M. tuberculosis H37Rv growth inhibition; higher % means a stronger effect | 220,000 compounds, 0.95% hits | inhibition, % at 10 µM, or IC50 in µM where a hit was titrated;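 active = confirmed in a dose series; inconclusive = inhibition above 80% but not taken into the dose series; inactive = below 80% or under 30% at every dose of the series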;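 note: bacteria incubated seven days before Alamar blue readout; 0% = bacteria only wells and 100% = bacteria with antibiotic wells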
Mtb betalactam: beta-lactam sensitization of Mtb H37Rv, H37Rv. inhibition, % at 25 µM. M. tuberculosis H37Rv growth with meropenem, percent inhibition; hits of this screen are not shown here. 330,000 compounds, 0.27% hits. AID 434955, 2010;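 active = about 74% or more and at least 40 points above the plate without the antibiotic, then above 30% in a dose series; inconclusive = first-round hits that could not be retested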;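 note: growth measured after seven days incubation then overnight dye step; 0% = bacteria only wells and 100% = bacteria with antibiotic; twin plates without the antibiotic show which effects depend on it; some results filed as inactive read as strong as hits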
YopH inh: YopH tyrosine phosphatase inhibitors, primary screen, biochemical, fluorescence Ex485/Em525; YopH tyrosine phosphatase [Yersinia enterocolitica]; inhibition, %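 (about 10 µM by stock and volumes)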; 140,000 compounds, 0.16% hits; AID 898, 2007;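 active = inhibition of 50% or more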;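 note: controls were vehicle for no effect and minimum signal wells for full effect; inactives centre near -20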
Arbovirus inh: antivirals against arbovirus infection, primary screen, cell-based, full library, 10K replicate subset. AID 1251, 2008. arbovirus infection cell-based antiviral screen. inhibition, % at 10 µM. 200,000 compounds, 0.37% hits;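 active = inhibition from about 30%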;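 note: bluetongue infection of BSR cells; cell survival read as ATP light after 72 h; 0% = infected wells without compound and 100% = uninfected wells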
Arbovirus inh repeat: also measured in Arbovirus inh; calls as there; inhibition, %; measured here: 10K subset replicate screen; many hits read low in the repeat;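 first of two repeat runs on a subset; 0% = infected and 100% = uninfected wells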
An asterisk follows results filed as active; u = inconclusive; x = not tested or not shown.

The first 21 entries, ahead of the listing:
SMILES	RecA intein inh	Mtb H37Rv	Mtb betalactam	YopH inh	Arbovirus inh	others
COc1ccc(CCNC(=O)C2CCN(C(=O)c3cccs3)CC2)cc1	-1.6	-1%	-1	x	3
O=C(NCCS(=O)(=O)NCc1ccc(F)cc1)c1ccccc1	0.2	x	-11	x	x
COc1ccccc1N(CC(=O)N/N=C(\C)c1cccc(Br)c1)S(C)(=O)=O	0.6	1%	1	-19	1
COc1ccc(Nc2nnc(C)c3ccccc23)cc1	1.2	x	-4	x	x
COc1ccc(C(=O)N/C=C/n2cnc3cc(C(F)(F)F)ccc32)cc1	-0.4	3%	1	x	x
Cc1ccc(NS(=O)(=O)c2ccc(-c3coc(C)n3)cc2)c(Br)c1	1.2	x	6	x	x
Cc1ccc(C)c(CN2CCC(CNC(=O)Nc3ccc(C)c(F)c3)CC2)c1	0.2	x	2	x	x
C(CNC1C2CC3CC(C2)CC1C3)CN1CCOCC1 (centres undefined)	3.2	0%	-8	x	x
Cc1ccc(C)c(NC(=S)N2CCC(NC(=O)c3cccc(F)c3)CC2)c1	-1.9	x	0	x	x
CC(C)CC(=O)Nc1ccc(S(=O)(=O)Nc2nccs2)cc1	-2.1	x	-2	x	x
COc1cccc(C(=O)N2CCSC2=S)c1	-3.3	-6%	-4	-11	2	Arbovirus inh repeat=-2
Cc1c(C(=O)N2CCOCC2)oc2ccc(S(=O)(=O)N3CCCCCC3)cc12	-0.4	4%	-7	-18	7
Nc1nc2ccccc2n1C(=O)CCc1ccccc1	-2.9	0%	0	19	-10
O=C(CNCc1ccc(Cl)cc1)N1CCc2ccccc2C1	2.1	x	0	x	x
CCOC(=O)C1CCCN(c2c(N3CCN(C)CC3)c(=O)c2=O)C1 (centres undefined)	-0.8	3%	-2	-52	12
COc1ccc(CCNC(=O)CSc2nc3[nH]ncc3c(=O)n2-c2cccc(C(F)(F)F)c2)cc1OC	-2.3	-2%	-8	x	10
Cc1ccc(NC(=O)/C(=C\C=C\c2ccccc2)NC(=O)c2ccccc2)cc1	4.8	3%	-11	-8	28
CCCC(=O)c1ccc(N2CCCCCC2)c(F)c1	7.0	-1%	33	-39	3	Arbovirus inh repeat=2
O=C(c1csc2c1CCCCC2)N1CCC2(CC1)OCCO2	-0.8	-5%	-4	2	-2
COc1ccc2cc3cc(C(=O)N4CCCC(C)C4)oc3nc2c1 (centres undefined)	-7.9	x	3	x	x
CCCCn1c(CN(Cc2ccccc2)Cc2ccccc2)nc2c1c(=O)n(C)c(=O)n2C	-0.9	14%	-7	7	x

This part in full, from the start:
SMILES	RecA intein inh	Mtb H37Rv	Mtb betalactam	YopH inh	Arbovirus inh	others
COc1ccc(CCNC(=O)C2CCN(C(=O)c3cccs3)CC2)cc1	-1.6	-1%	-1	x	3
O=C(NCCS(=O)(=O)NCc1ccc(F)cc1)c1ccccc1	0.2	x	-11	x	x
COc1ccccc1N(CC(=O)N/N=C(\C)c1cccc(Br)c1)S(C)(=O)=O	0.6	1%	1	-19	1
COc1ccc(Nc2nnc(C)c3ccccc23)cc1	1.2	x	-4	x	x
COc1ccc(C(=O)N/C=C/n2cnc3cc(C(F)(F)F)ccc32)cc1	-0.4	3%	1	x	x
Cc1ccc(NS(=O)(=O)c2ccc(-c3coc(C)n3)cc2)c(Br)c1	1.2	x	6	x	x
Cc1ccc(C)c(CN2CCC(CNC(=O)Nc3ccc(C)c(F)c3)CC2)c1	0.2	x	2	x	x
C(CNC1C2CC3CC(C2)CC1C3)CN1CCOCC1 (centres undefined)	3.2	0%	-8	x	x
Cc1ccc(C)c(NC(=S)N2CCC(NC(=O)c3cccc(F)c3)CC2)c1	-1.9	x	0	x	x
CC(C)CC(=O)Nc1ccc(S(=O)(=O)Nc2nccs2)cc1	-2.1	x	-2	x	x
COc1cccc(C(=O)N2CCSC2=S)c1	-3.3	-6%	-4	-11	2	Arbovirus inh repeat=-2
Cc1c(C(=O)N2CCOCC2)oc2ccc(S(=O)(=O)N3CCCCCC3)cc12	-0.4	4%	-7	-18	7
Nc1nc2ccccc2n1C(=O)CCc1ccccc1	-2.9	0%	0	19	-10
O=C(CNCc1ccc(Cl)cc1)N1CCc2ccccc2C1	2.1	x	0	x	x
CCOC(=O)C1CCCN(c2c(N3CCN(C)CC3)c(=O)c2=O)C1 (centres undefined)	-0.8	3%	-2	-52	12
COc1ccc(CCNC(=O)CSc2nc3[nH]ncc3c(=O)n2-c2cccc(C(F)(F)F)c2)cc1OC	-2.3	-2%	-8	x	10
Cc1ccc(NC(=O)/C(=C\C=C\c2ccccc2)NC(=O)c2ccccc2)cc1	4.8	3%	-11	-8	28
CCCC(=O)c1ccc(N2CCCCCC2)c(F)c1	7.0	-1%	33	-39	3	Arbovirus inh repeat=2
O=C(c1csc2c1CCCCC2)N1CCC2(CC1)OCCO2	-0.8	-5%	-4	2	-2
COc1ccc2cc3cc(C(=O)N4CCCC(C)C4)oc3nc2c1 (centres undefined)	-7.9	x	3	x	x
CCCCn1c(CN(Cc2ccccc2)Cc2ccccc2)nc2c1c(=O)n(C)c(=O)n2C	-0.9	14%	-7	7	x
CCOc1cc(NC(=S)NCC2CCCO2)c(OCC)cc1NC(=O)c1ccc(F)cc1 (centres undefined)	-3.8	2%	-2	x	-5
C1CCc2nc3c(nc2C1)CCCC3	0.6	-6%	-1	x	x
C=CCc1cc(Cl)ccc1OCCOCCNC(C)CC (centres undefined)	-1.3	3%	10	x	-15
Cc1cc(C)c(OCC(=O)Nc2cccc(NC(=O)c3ccco3)c2)c(Br)c1	8.2	5%	2	-14	8	Arbovirus inh repeat=-15
O=C(Cc1c(F)cccc1Cl)NCCN1CCOCC1	1.4	-1%	-8	x	1
COc1cc(NS(=O)(=O)c2ccc(NC(C)=O)cc2)ncn1	x	6%	-1	-6	-1
CCN(CC)C(=O)Cn1cc(S(=O)(=O)CC(=O)NC2CCCCC2)c2ccccc21	0.0	-4%	-11	x	1
C#CC[N+](C)(C)CC#Cc1ccc(C)cc1	-1.9	-12%	0	x	15
Cc1ccc(S(=O)(=O)NCCCC(=O)O)cc1	0.0	-4%	3	x	1
Cc1ccccc1CSc1nnc(-c2ccco2)n1Cc1ccco1	10	10%	0	-45	11	Arbovirus inh repeat=2
Cc1ccc(/C=C(\C#N)C(=O)NC(C)c2ccccc2)o1 (centres undefined)	2.0	x	-2	x	x
O=C(C1=NN(c2ccccc2)C2C(=O)N(c3cccc(Cl)c3)C(=O)C12)c1ccccc1 (centres undefined)	x	5%	10	-3	7
Cn1cnc([N+](=O)[O-])c1Cl	3.3	0%	2	x	x
CC1(C)Nc2ccccc2C(=O)N1c1ccc(Br)cc1	0.0	x	-10	x	x
COc1cccc(-c2c(C(=O)N/N=C/c3ccncc3)nnn2-c2nonc2N)c1	0.0	x	6	x	x

A stretch from further up, for reference:
SMILES	RecA intein inh	Mtb H37Rv	Mtb betalactam	YopH inh	Arbovirus inh	others
O=C(C1=NN(c2ccccc2)C2C(=O)N(c3cccc(Cl)c3)C(=O)C12)c1ccccc1 (centres undefined)	x	5%	10	-3	7
Cn1cnc([N+](=O)[O-])c1Cl	3.3	0%	2	x	x
CC1(C)Nc2ccccc2C(=O)N1c1ccc(Br)cc1	0.0	x	-10	x	x
COc1cccc(-c2c(C(=O)N/N=C/c3ccncc3)nnn2-c2nonc2N)c1	0.0	x	6	x	x

(listing goes on)
SMILES	RecA intein inh	Mtb H37Rv	Mtb betalactam	YopH inh	Arbovirus inh	others
COc1cc(SC)ccc1C(=O)N1CCN(Cc2ccccc2)CC1	2.3	6%	-4	x	-2
Cc1cc(C)c(S(=O)(=O)c2ccc(Cl)cc2C)c(Cl)n1	1.9	9%	7	x	-7
S=c1[nH]nc(COc2cccc(Cl)c2)n1Cc1ccccc1	0.7	5%	1	x	2
COc1ccc(-c2noc(CCC(=O)NCc3cccnc3)n2)cc1	1.8	-9%	-11	-22	0
COc1ccc2c(c1OC)C(=O)OC2CC(=O)O (centres undefined)	x	-13%	3	-99	7
Nc1cc(Cl)nc(N/N=C/c2ccccc2[N+](=O)[O-])n1	-2.3	4%	3	10	5
Cc1ccccc1-c1nnc(SCC(=O)Nc2ccc(Cl)cc2)n1N	2.2	-5%	-14	-14	7	Arbovirus inh repeat=7
CCOC(=O)c1sc(NC(=O)CSc2n[nH]c(-c3ccncc3)n2)c(C#N)c1C	-1.7	-6%	-3	0	15
Cc1ccccc1C(=O)/C(C#N)=N/Nc1c(C)n(C)n(-c2ccccc2)c1=O	0.3	u	2	-39	-31
COc1cc(NC2c3ccccc3C(=O)N2Cc2ccccc2Cl)cc(OC)c1 (centres undefined)	0.0	12%	2	x	x
CC(C)(C)Nc1nc(SCc2ccccc2)nc(N2CCOCC2)n1	13	1%	23	10	17
CC(=O)N1c2ccc(S(=O)(=O)N(C)CC(=O)N3CCCC3)cc2CC1C (centres undefined)	-4.4	x	0	x	x
O=C(CNc1cccc2ccccc12)N/N=C/c1ccc[nH]1	1.0	x	-7	x	x
O=C(CSc1nnc(NC(=O)C2CC2)s1)NCc1ccc(F)cc1	0.8	x	-12	x	x
Nc1nnn(CC(=O)N/N=C/c2ccc(O)cc2)n1	1.1	4%	-17	x	x
Cc1ccc(NC(=O)NCc2cccn2C)cc1C	4.6	x	-5	x	x
O=C(c1ccco1)N1CCN(c2ccc(N3CCCCC3)nn2)CC1	-11	x	-3	x	x
CC(C)(O)C#Cc1ccc(C(=O)N2CCCC(CCC(=O)NCc3ccccc3F)C2)cc1 (centres undefined)	0.5	x	7	x	x
CCCOC(=O)c1ccc(OC(=O)c2ccco2)cc1	37*	u	99	-38	-6
CCCC(=O)Nc1ccc(C(=O)NN2C(=O)c3ccccc3C2=O)cc1	3.2	1%	-2	-26	-4
COC(=O)c1[nH]c2ccc(C)cc2c1NC(=O)CN1CCN(c2ccc(F)cc2)CC1	-0.9	3%	-3	-44	2
C/C=C(/C)C(=O)Nc1cccc(C2=NOC3(C2)C[C@H](C(N)=O)N(C(=O)c2ccc(Cl)cc2)C3)c1 (some centres undefined)	1.6	-14%	0	x	x
COc1ccc(OC)c(C2C(C(C)=O)=C(O)C(=O)N2Cc2cccnc2)c1 (centres undefined)	-0.1	-3%	8	-16	5
COc1ccc(S(=O)(=O)N2CCN(c3ccccc3OC)CC2)cc1OC	0.6	-11%	-6	1	49*
Cc1ccc(CS(=O)(=O)CCC(=O)N2CCOCC2)cc1	1.9	-8%	4	-29	6
COc1cccc(NC(=O)c2nn(C)cc2Br)c1	-6.1	2%	-7	22	x
COc1ccccc1/C=C/C=N/N1CCN(Cc2cccc3ccccc23)CC1	-0.6	x	8	-36	-5
CCC(=O)OC1c2ccccc2C(=O)N1Cc1ccccc1 (centres undefined)	0.5	5%	-2	-3	3
CCCCCOc1ccc(NC(=O)c2cc(SC)ccc2Cl)cc1	8.3	4%	-8	-30	-9
C=CCc1c(C)nc2cc(-c3ccccc3)[nH]n2c1=O	-1.3	x	-5	x	x
Cc1ccc(F)cc1NC(=O)CCOc1ccccc1	11	0%	7	x	0
Nc1nonc1-n1nnc(C(=O)N/N=C/c2ccccc2F)c1CN1CCOCC1	0.3	x	-5	x	x
CC(C)(C)c1ccc2c(c1)OCC(C(=O)O)O2 (centres undefined)	-3.8	1%	58	-9	11
CCn1nnnc1SCC(=O)Nc1cccc(NC(C)=O)c1	-2.4	13%	-2	-30	9
CCOC(=O)C1=C(C)Nc2ncnn2C1c1ccccc1F (centres undefined)	x	8%	-5	11	-1
CS(=O)(=O)c1ccc(Cl)c(NC(=O)COC(=O)CNC(=O)c2ccc(Br)o2)c1	0.8	x	-2	-18	2
Cc1cnn(-c2ccc3nnc(-c4ccc(Br)cc4)n3n2)c1	1.1	-16%	-1	-27	10	Arbovirus inh repeat=4
CC1=CCC2C(=O)N(c3cc(C)on3)C(=O)C2C1 (centres undefined)	0.7	0%	-2	-18	1
O=C(c1cc(Br)c[nH]1)N1CCSCC1	1.1	x	-2	x	x
O=C(N/N=C/c1ccc(-c2ccc([N+](=O)[O-])cc2)o1)c1cccnc1	-2.4	48%	94	x	x

Source: PubChem

These rows are one share of the data; count on the stated rates, not on these rows.
